Screens (PubChem BioAssay)
PABP FP inh: blocks human PABP binding to poly(A) RNA; P11940; AID 2014; 290,000 compounds, 1% hits; fluorescence polarization; inhibition, % at 35 µM;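 active means 50% or more with normal probe brightness, or confirmed in later tests; inconclusive means above 50% with abnormal brightness, or retests that disagree; inactive means below 50% or failed in later tests; about a fifth of its hits are not listed in these tables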;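 further: calls also rest on retests at 20 µM and on dose response follow-up; controls were probe without protein and protein plus probe with vehicle; some compounds called inactive have numbers as strong as hits; many hits fall short of the cut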
eIF4H FP inh: inhibitors of RNA binding by human eIF4H; 290,000 compounds, 0.94% hits; AID 2012; inhibition, % at 35 µM; eIF4H fluorescence polarization binding assay; Q15056;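 active means 50% or more with normal probe brightness, or confirmed in later tests; inconclusive means above 50% with abnormal brightness, or retests that disagree; inactive means below 50% or failed in later tests; about a fifth of its hits are not listed in these tables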;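 further: calls also rest on retests at 20 µM and on dose response follow-up; 0% = protein and probe with vehicle and 100% = probe without protein; strong numbers were not always called active; many hits fall short of the cut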
Yeast UUG start: modulators of start codon recognition fidelity in yeast | 350,000 compounds, 0.13% hits | S. cerevisiae UUG-firefly luciferase reporter, luminescence/redox ratio | activity score, % at 18.7 µM;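 active means replicate mean at a twofold rise or more, about +100% in these data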;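 further: firefly luciferase made from a UUG start codon reports start codon fidelity; reporter light over untreated wells divided by growth signal over untreated wells; some hits fall short of that in this replicate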
Env fusion inh: HIV envelope-mediated fusion inhibition; HeLa-JRFL Env/CEM21 cell fusion, luciferase; inhibition, % at 12.3 µM; 360,000 compounds, 1.1% hits;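 active means mean replicate inhibition score of at least 50 and every replicate individually at or above 50; inconclusive means only one of the two criteria met; inactive means mean below 50 and not all replicates reaching 50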;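 further: 0% = plate neutral controls and 100% = maraviroc near 300 nM; one replicate is shown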
CSC inhib: blocks cancer stem cells. AID 2717. cancer stem cell-like cells viability, luminescence. 300,000 compounds, 1.1% hits. inhibition, % at 7.5 µM;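 active means mean at 75% or more and at least half the replicates too; inconclusive means mean and replicates disagree; tested in HMLE shEcad cells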;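 further: 0% = median of negative and 100% = median of positive control wells; the first replicate is given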
MT1-MMP act inh: inhibitors of human MT1-MMP activation; P50281; 360,000 compounds, 0.061% hits; HT1080 RFP-PRO-GFP cells, GFP/RFP ratio fluorescence, overnight; percent of plate control window, DMSO zero; GFP/RFP ratio change, % at 20 µM;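 active means GFP/RFP ratio change of at least 30% with cell ATP level not reduced by more than half and red fluorescence within 50% of control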; further: strong numbers were not always called active
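Material: RFP-PRO-GFP reporter HT1080 cells. Dosing: single-point 20 µM compound, 1% DMSO. Controls: DMSO and RFP-L50D-GFP cell wells. Timing: cells overnight before dosing, compound overnight, 37 °C, 5% CO2. Measure: GFP/RFP fluorescence ratio.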
Rce1 inh: yeast Ras-converting enzyme inhibition. yeast membranes, quenched prenylated peptide cleavage fluorescence. 290,000 compounds, 0.27% hits. calls only. Q03530;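 active means fall in fluorescence gain of 50% or more versus controls, with final raw signal at or below 3038400; inconclusive means same 50% fall but final raw signal above 3038400; inactive means fall in fluorescence gain under 50%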;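 further: plate controls were neutral control wells for no effect and wells lacking membranes for full effect; tested at 10 µM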
Target sequence (Q03530 whole entry, looked up): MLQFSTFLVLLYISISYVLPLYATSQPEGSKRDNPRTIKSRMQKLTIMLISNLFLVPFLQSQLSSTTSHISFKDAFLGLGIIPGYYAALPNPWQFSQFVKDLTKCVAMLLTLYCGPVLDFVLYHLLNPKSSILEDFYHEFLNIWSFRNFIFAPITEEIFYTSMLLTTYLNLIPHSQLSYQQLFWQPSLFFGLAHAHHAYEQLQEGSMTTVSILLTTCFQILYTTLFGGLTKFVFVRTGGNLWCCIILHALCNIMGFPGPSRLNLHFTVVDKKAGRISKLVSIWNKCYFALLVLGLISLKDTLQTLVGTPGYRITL
eIF4H FP inh retest: also measured in eIF4H FP inh; calls as there; inhibition, %; compound at 20 µM; confirmation average;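 mean of two retest wells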
PABP FP inh retest: recorded beside PABP FP inh, whose call it bears; inhibition, %; compound at 20 µM; confirmation repeats;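 mean of two retest wells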
MT1-MMP act inh RFP: also measured in MT1-MMP act inh; calls as there; RFP signal change, %; measured here: RFP expression control read;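 0 = vehicle wells; hits needed this value within 50% of zero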
* = called active by the depositor; i = inactive; ? = inconclusive; . = not tested or not shown.

SMILES	PABP FP inh	eIF4H FP inh	Yeast UUG start	Env fusion inh	CSC inhib	MT1-MMP act inh	MT1-MMP act inh RFP	Rce1 inh	others
CC1(C)Cc2c(cnn2-c2cccc(F)c2)C(NC(=O)CN2CCCC2=O)C1 (stereo unspecified)	3	-1	-17	-15	-2	4	-1	i
CN(CC(=O)Nc1c(Cl)cccc1Cl)C(=O)Cc1ccc2c(c1)CCC2	.	.	0	3	-17	-2	1	i
CC1CCN(S(=O)(=O)c2ccc3c(c2)N(CC(=O)NCCCOC(C)C)C(=O)CO3)CC1	9	-6	3	8	-13	0	0	i
Cc1noc(C)c1CSc1cc(C)c2ccccc2n1	1	1	-4	7	47	6	-1	i
CCC(=C(c1ccc(OC)cc1)c1ccc(OC)cc1)c1cn(CC(O)CN2CCN(C)CC2)c2ccccc12 (stereo unspecified)	9	3	2	-186	107*	-5	-1	.
O=C(O)CCCCn1c(SCC(=O)Nc2ccccc2C(F)(F)F)nc2ccsc2c1=O	-14	-8	.	.	-6	4	2	i
COc1ccc(CCNC(=O)Nc2ccc3c(c2)c(=O)n(C)n3Cc2ccc(Cl)cc2)cc1OC	.	.	9	-1	.	3	-17	.
CCOC(=O)c1nnn(-c2nonc2N)c1-c1ccccc1	5	12	0	-5	-8	-1	1	i
O=C(c1cc2cc(Cl)ccc2o1)N1CCCCCC1	.	.	-16	-89	.	8	2	.
CCC(C)(C)C1CCC(=NNC(=S)Nc2cccnc2)CC1 (stereo unspecified)	0	-3	-8	-1	-12	5	3	i
Cc1nnc(C)c2c(C)n(-c3ccc(Cl)c(N)c3)c(C)c12	-1	-2	-8	-1	-10	0	4	i
COc1ccc(NC(=O)c2c([N+](=O)[O-])c(C(C)(C)C)nn2C)cc1	-4	-2	-9	6	1	1	-4	i
COC(=O)c1ccc2nc(C(C)(C)C)c(Cc3ccc(OC)cc3C)n2c1	.	.	17	6	.	-3	4	.
CCCCC(CC)COP(=O)(OCC(CC)CCCC)OCC(CC)CCCC (stereo unspecified)	.	.	-11	.	5	-5	-2	.
O=C(O)c1ccccc1CSc1ncn[nH]1	8	6	-6	8	-11	9	-2	i
Cc1nc(N2CCN(c3ccccn3)CC2)c2c(C)c(C(=O)Nc3c(C)cc(Br)cc3C)sc2n1	0	-16	-8	10	0	-3	-16	i
Cc1c(NC(=O)C(C)N2C(=O)NC3(CCC(C)CC3)C2=O)c(=O)n(-c2ccccc2)n1C (stereo unspecified)	-4	-6	.	1	8	-4	3	i
CCc1nn(C(CC)C(=O)NCC(C)c2ccccc2)c(=O)c2cc3occc3n12 (stereo unspecified)	-5	-2	-6	12	.	-1	3	i
COc1cccc(CN(C)CC(=O)Nc2sc3c(c2C#N)CCC3)c1	?	31	.	9	-2	-2	0	i
CS(=O)(=O)c1nc(-c2ccc(Br)cc2)cc(-c2ccccc2)c1C#N	3	-2	-20	-2	86*	-32	-43	i
CCCN(CCC)S(=O)(=O)c1ccc(C(=O)Nc2nc3c(s2)CCc2ccccc2-3)cc1	-12	-13	-11	1	-17	-5	-5	i
COc1ccc(N(CC(=O)NCCSc2ccccn2)S(=O)(=O)c2ccccc2)cc1Cl	5	0	7	10	2	-2	1	i
Cc1ccc(CNC(=O)C2CCN(c3nn4c(=O)cc(C)nc4s3)CC2)cc1	6	-4	-21	-5	-13	3	4	i
CCCOc1ccc(C(CC(=O)O)NS(=O)(=O)c2ccc(NC(C)=O)cc2)cc1 (stereo unspecified)	-2	3	-6	.	-15	1	7	i
COc1ccc(NC(=O)C2CCN(c3cc(C)nc(-c4ccccc4)n3)CC2)cc1	-1	-12	-1	.	3	0	-1	i
Remaining list, next part.
SMILES	PABP FP inh	eIF4H FP inh	Yeast UUG start	Env fusion inh	CSC inhib	MT1-MMP act inh	MT1-MMP act inh RFP	Rce1 inh	others
O=C(/C=C/c1ccccc1)NCCSc1ccc(Cl)cc1	10	-11	-4	.	3	4	2	i
COc1cccc(-c2csc(N3CCN(C(=S)Nc4ccc(Cl)cc4)CC3)n2)c1	1	-6	-33	29	4	-7	-6	i
NC(=O)C1(Nc2ccccc2Cl)CCCC1	.	.	-11	-12	.	-2	3	.
NC(=O)c1cc(S(=O)(=O)Nc2ccccc2)cs1	1	0	-19	-7	-8	1	-2	i
CCOC(=O)Cn1c2c(c(=N)c3c1CCC3)CCCC2	14	2	-12	15	-17	0	-5	i
CCC1CCCCN1C(=O)c1cc2c(=O)n3cccc(C)c3nc2s1 (stereo unspecified)	21	17	-11	.	-5	-4	-2	.
CCN(CC)C(=O)CN(c1cc2c(cc1OC)oc1ccccc12)S(=O)(=O)c1ccccc1	1	-2	-2	.	6	-5	-6	i
O=C(NCCN1C(=O)S/C(=C/c2cccnc2)C1=O)C1=NN(c2ccccc2)C(=O)CC1	.	.	3	.	3	-5	-1	.
Oc1ccc(/C=C/c2ccc3ccccc3n2)cc1	-2	3	-68	-51	8	-1	-2	i
CCCCC(O)(C(NC=O)C(=O)OC)C(F)(F)F (stereo unspecified)	15	8	-15	.	10	9	1	i
CN(CCc1ccccn1)Cc1ccc(Cl)cc1Cl	7	-1	-3	-29	-22	1	4	i
O=C(NCc1ccc2c(c1)OCO2)C(=S)N1CCOCC1	-8	-9	1	-11	-12	-1	5	i
CCOC(=O)N1CCC(NC(=O)C2CCN(S(=O)(=O)c3c(C)noc3C)CC2)CC1	-12	8	-18	.	4	1	1	i
C=CCN1C(=O)C(Cc2ccc(OC)cc2)SC1=Nc1ccc(C(=O)O)cc1 (stereo unspecified)	8	-4	-7	.	7	-4	3	i
CCCCNCc1cc(Br)c(OCC(=O)NCc2ccccc2)c(OC)c1	-6	11	2	-4	-14	-3	1	i
Cc1ccc(S(=O)(=O)CCC(=O)Nc2sccc2C#N)cc1	.	.	11	21	9	-2	1	i
CCOC(=O)c1c(NC(=O)c2noc(C)c2[N+](=O)[O-])sc(C(C)=O)c1C	7	-2	.	6	1	-7	-4	i
COc1ccccc1N(C)S(=O)(=O)c1ccc(C(=O)OC(C)C(=O)NCc2ccc3c(c2)OCO3)cc1 (stereo unspecified)	-10	-5	.	-4	2	1	-5	i
CCOc1ccc(CNC(=O)C(C)n2nc(C)c3c(C)n(-c4ccccc4)nc3c2=O)cc1 (stereo unspecified)	-12	-14	1	-3	-3	0	-6	i
Cc1cc(C)c2c(=O)[nH]c(SCC(=O)c3ccc(C(C)C)cc3)nc2n1	102	44	-9	-93	7	12	6	i	eIF4H FP inh retest=-5;PABP FP inh retest=4
COc1ccc(OC)c(NC(=O)[C@@H]2CCCN2C(=O)c2cccs2)c1	-11	-6	.	.	-9	-1	4	i
COC(=O)c1cc(=O)nc2scc(C)n12	-3	1	-9	-7	-3	2	5	i
CCC(CC)C(=O)Nc1cccc(C(=O)N2CCOCC2)c1	3	6	-8	-12	.	0	1	i
COc1ccc2oc(N)c(C=O)c(=O)c2c1	12	-8	-17	-8	7	2	2	.
CCOC(=O)C1Cc2cc3c(cc2C1=O)CC(C(=O)OCC)C3=O (stereo unspecified)	17	1	.	.	.	.	.	i
The list continues.
SMILES	PABP FP inh	eIF4H FP inh	Yeast UUG start	Env fusion inh	CSC inhib	MT1-MMP act inh	MT1-MMP act inh RFP	Rce1 inh	others
COc1ccc(CN2CCC(n3nccc3NC(=O)C3CCCC3)CC2)c(OC)c1	3	-7	-12	.	-9	2	2	i
Cc1c(Cl)cccc1N1CC(C(=O)Nc2nccs2)CC1=O (stereo unspecified)	1	2	-9	.	-2	-1	7	i
CC(=O)Nc1ccc(CNc2nc(NCC3CC3)nc3ccsc23)cc1	.	.	0	-30	.	2	-2	.
Cc1[nH]c2ccccc2c1N=Nc1cccc(C(=O)O)c1	-8	-5	.	-38	-13	4	1	i
CCOc1ccc(-c2noc([C@@H]3O[C@H](CO)[C@@H](O)[C@H]3O)n2)cc1	.	.	-12	-9	.	-3	-1	.
CC(c1ccccc1)n1cc(C(=O)NCCN2CCOCC2)nn1 (stereo unspecified)	-3	6	-16	.	.	-2	0	i
CC(C(=O)N1CCN(C)CC1)N1C(=O)c2ccccc2C1=O (stereo unspecified)	4	-6	-21	-26	-13	4	3	i
CC1=CC(c2ccccc2)n2nc(NS(=O)(=O)c3ccc(C)cc3)nc2N1 (stereo unspecified)	18	0	-16	.	-2	-3	4	.
CC(=O)Nc1ccccc1S(=O)(=O)CC1CC1(Cl)Cl (stereo unspecified)	-4	4	-2	25	-12	6	5	i
Nc1ccn(CC(=O)NCc2ccccn2)c(=O)n1	.	.	-10	-40	-5	3	5	.
COc1ccc(CNC(=O)C2CCC(=O)N(CC3CCCCC3)C2)cc1 (stereo unspecified)	6	-5	-13	-1	1	1	-3	i
CCN(CC)S(=O)(=O)c1cccc(-c2n[nH]c(=S)n2C)c1	-8	-6	.	-16	.	2	3	i
COC(=O)CCCC1=CC2=C(c3ccccc3)C(=O)C(C)(OC(=O)C3CCCC3)C(=O)C2=CN1CCCCO (stereo unspecified)	4	1	7	2	-5	-1	4	i
Cc1cc(C)c(S(=O)(=O)N2CCN(C(=O)C3CC3)CC2)c(C)c1	.	.	-1	-3	.	0	-3	.
Cc1c(NC(=O)CN2C(=O)NC3(CCCC3)C2=O)c(=O)n(-c2ccccc2)n1C	3	-1	.	6	1	-9	2	i
CCN(c1ccccc1)S(=O)(=O)c1cccc(C(=O)NCC(c2cccs2)N(C)C)c1 (stereo unspecified)	-13	-8	.	-26	2	2	1	i
CCC(C)NC(=O)C(NS(=O)(=O)c1ccc2c(c1)c(=O)n(C)c(=O)n2C)c1ccccc1 (stereo unspecified)	3	-1	0	-6	2	0	4	.
COc1ccc(-n2c(CNC(=O)COc3ccc(Cl)cc3)n[nH]c2=S)cc1	-4	0	-5	-1	6	11	1	i
COCCn1nnnc1C(c1ccc(Cl)cc1)N1CCN(C(=O)c2ccco2)CC1 (stereo unspecified)	0	-6	10	1	4	-1	3	i
CCOc1ccc(OCC)c(NC(=O)C2C3C=CC(O3)C2C(=O)NCc2ccco2)c1 (stereo unspecified)	9	20	-5	-7	.	0	3	.
CCCN(CCC)c1nc(N(CCC)CCC)[nH]c(=O)n1	?	3	-14	27	0	4	-7	i
Cc1ccc(F)c(NC(=O)c2cncn2-c2ccccc2)c1	-3	4	-16	-4	-12	1	6	i
CCOC(=O)CCC(=O)Nc1ccc(S(=O)(=O)N2CCc3ccccc32)cc1	10	7	-25	14	-5	2	6	i
Cc1csc(C(=O)O)c1NC(=O)c1ccc(F)cc1	2	-6	-22	7	5	-1	1	i
COc1ccc(CCN(C)S(=O)(=O)c2cn(C)c(=O)n(C)c2=O)cc1OC	.	.	-9	-5	.	1	4	.
CS(=O)(=O)N1CCc2cc(S(=O)(=O)Nc3ccc4c(c3)OCCO4)ccc21	-6	-11	2	.	3	0	-15	i
O=C(CSc1ccc2nnc(CCNC(=O)c3ccc(F)cc3)n2n1)NCC1CCCO1 (stereo unspecified)	0	0	-9	.	-2	-3	0	i
O=C(C(c1ccccc1)c1ccccc1)N1CC[C@@]2(O)CCCC[C@H]2C1	-5	4	-6	10	13	-5	-3	i

Molecules shown so far containing a cyano group, in the order listed:
SMILES	PABP FP inh	eIF4H FP inh	Yeast UUG start	Env fusion inh	CSC inhib	MT1-MMP act inh	MT1-MMP act inh RFP	Rce1 inh	others
COc1cccc(CN(C)CC(=O)Nc2sc3c(c2C#N)CCC3)c1	?	31	.	9	-2	-2	0	i
CS(=O)(=O)c1nc(-c2ccc(Br)cc2)cc(-c2ccccc2)c1C#N	3	-2	-20	-2	86*	-32	-43	i
Cc1ccc(S(=O)(=O)CCC(=O)Nc2sccc2C#N)cc1	.	.	11	21	9	-2	1	i
